Screening data from PubChem BioAssay.
Ab BasE inh – BasE siderophore biosynthesis inhibition | purified BasE, fluorescence polarization binding displacement | inhibition, % (concentration not given with the values) | 84,000 compounds, 0.1% hits | AID 485350;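 active means both replicates above 25% with normal brightness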;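 further: 0% = negative plate control signal and 100% = positive plate control signal; stock transfer was 100 nL into about 30 µL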
KSHV LANA nucl – LANA-nucleosome interaction inhibition | FITC-LANA1-23 / chicken nucleosome fluorescence polarization; active compounds read low | z-score (test concentration not listed) | 51,000 compounds, 0.3% hits;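 active means both repeat wells score below -2 in polarization z-score versus plate sample wells, excluding overly bright wells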;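 further: 100 nL library stock added to about 30 µL; numbers are from one replicate; some results filed as inactive read as strong as hits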
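test system = FITC-LANA peptide and chicken nucleosomes | amount = 240 nM purified chicken nucleosomes (480 nM peptide binding sites), final | reagent = 50 nM FITC-LANA1-23 probe | medium = TEN-BT buffer, pH 7.5 | doses = single compound addition by pin transfer, 100 nL per well | timing = 10–45 min, room temperature | detection = fluorescence polarization | repeats = duplicate plates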
* hit, by the source's call; x = no result given; & = joins results of further samples. The list is partial. The share of hits here may be higher or lower than overall.

entry	SMILES	Ab BasE inh	KSHV LANA nucl
1	COC(=O)C1CCN(S(=O)(=O)c2ccc(OC)cc2)CC1	-2.5	-0.19
2	O=C(Nc1ccc(S(=O)(=O)N2CCCCC2)cc1)C1CCCCC1	-1.4	1.1
3	CCCn1c(=O)n(C)c(=O)c2c(SCC(=O)O)nc(CC(C)C)nc21	0.3	x
4	O=C(NCCC1=CCCCC1)C1CCN(C(=O)Cc2ccccc2)CC1	-2.5	-0.36
5	O=C(N/N=C1\CC(=O)c2ccccc21)c1ccc2c(c1)OCO2	3.3	x
6	COc1ccc(S(=O)(=O)N2CC=C(c3ccccc3)CC2)c(OC)c1	x	-0.26
7	CSc1nc(/N=C/N(C)C)n2nc(C)cc2n1	-1.2	-0.44
8	O=c1cc(CN2CCc3ccccc32)occ1OCc1ccc(Cl)cc1	-1.9	0.95
9	CCN(CC)CC(=O)Nc1c(C)cccc1C	1.1&-3.8&-0.1	-0.044&0.013&-0.0035&-0.2&-0.93&0.12
10	O=C1CCCN2N=C(SCC(=O)Nc3cccc4ccccc34)SC2=N1	-5.2	-0.24
11	CC(C)C(=O)Nc1cccc(C(=O)Nc2ccccc2)c1	-0.3	-0.2
12	CCOC(=O)c1cc(C)n(CC(=O)O)c1C	0.4	x
13	O=C(C1=NN(c2ccccc2)C(=O)CC1)N1CCN(Cc2ccc3c(c2)OCO3)CC1	-2.6	x
14	COC(=O)Nc1nc2ccc(-c3n[nH]c(=O)c4ccccc34)cc2[nH]1	4.1	x
15	O=C(NC1CCCC1)c1noc2c1CCCCC2	0.9	0.28

Some of these compounds in order of the KSHV LANA nucl value, highest first:
nr | compound | KSHV LANA nucl
8 | O=c1cc(CN2CCc3ccccc32)occ1OCc1ccc(Cl)cc1 | 0.95
1 | COC(=O)C1CCN(S(=O)(=O)c2ccc(OC)cc2)CC1 | -0.19
11 | CC(C)C(=O)Nc1cccc(C(=O)Nc2ccccc2)c1 | -0.2
10 | O=C1CCCN2N=C(SCC(=O)Nc3cccc4ccccc34)SC2=N1 | -0.24

(listing goes on)
entry	SMILES	Ab BasE inh	KSHV LANA nucl
16	COc1ccc(CN2C(=O)C3(OCCCO3)c3ccccc32)cc1	3.3	-0.12
17	NCCOc1ccccc1	1.1	x
18	COc1ccc(-c2noc(CN(C3CCCCC3)S(=O)(=O)c3ccc(F)cc3)n2)cc1	0.3	-0.33
19	CC1CN(CCC(=O)Nc2ccc3c(c2)OCO3)CC(C)O1 (configuration not stated)	0.4	0.51
20	CCN(CC)S(=O)(=O)c1ccc2c(c1)nc(CCC(=O)OCC(N)=O)n2C	1.3	x
21	CC1=C/C(=N\Nc2ccc(C(F)(F)F)cn2)CC(C)(C)C1	0.7	x
22	CC(=O)N[C@H](C(=O)O)C(C)C	2.8	x
23	FC(F)Oc1ccc(NC(=S)NNc2ccc(Cl)nn2)cc1	1.7	x
24	CC(C)Cn1c(=O)n(C)c(=O)c2[nH]cnc21	1.6	0.098&-0.44
25	O=C(Nc1ccc2[nH]ncc2c1)C1CCC1	1.4	1.1
26	CN(C(=O)Nc1ccc(Cl)cc1)C1CC2C=CC1C2 (configuration not stated)	0.4	x
27	N#CCSc1nc(N)cc(N)n1	2.3	0.021
28	C/C(=N\NC(=O)c1ccccc1NS(=O)(=O)c1cccs1)c1ccco1	1.5	x
29	O=C(O)COc1ncnc2ccccc12	-1.6	1.5
30	O=C(COc1ccc2c3c(c(=O)oc2c1)CCC3)Nc1ccccc1N1CCOCC1	1.8	x
31	COCc1cc(C)nc(N2CCOCC2)c1C#N	-0.2	x
32	O=C(/C=C/c1ccc(F)cc1)N1CCN(C/C=C/c2ccccc2)CC1	1.1	0.3
33	CC(=O)OCC1OC(OC(C)=O)C(O)C(OC(C)=O)C1OC(C)=O (configuration not stated)	5.1	-0.42
34	Cn1c(Cc2cccs2)nnc1SCC(=O)c1ccc2c(c1)OCO2	0.8	x
35	Cc1cc(C)c2c(=O)n(C(=O)c3cccs3)sc2n1	2.5	x
36	COC(=O)c1c(N)n(C)c2nc3ccccc3nc12	6.3	-2.2
37	N#Cc1cccc(NC(=O)CCNC(=O)c2ccccc2)c1	1.5	x
38	Nc1ccc2nc(CO)[nH]c2c1	-0.5	0.24
39	CCN1CCC[C@H]1CNC(=O)c1c(OC)ccc(Br)c1OC	3.5	-0.29&-0.47
40	O=C(c1ccc(Cl)cc1)N(CCS(=O)(=O)c1ccc(Cl)cc1)Cc1cccs1	0.9	x
41	CN(C)c1cccc2c1c(NC(=O)Nc1ccccc1)nn2C	3.0	-0.75
42	O=C(OCc1cc(=O)oc2cc(O)ccc12)C1CCN(S(=O)(=O)c2ccccc2)CC1	-1.1	x
43	COC(=O)c1c(C)[nH]c(C)c1/C=C(\C#N)S(=O)(=O)c1ccc(Cl)cc1	-1.0	x
44	CCC1SC(=S)N(CC(=O)O)C1=O (configuration not stated)	0.6	-0.8
45	NC(=O)c1ncc(C(F)(F)F)cc1SCc1ccc(Cl)cc1	x	2.3
46	O=S(=O)(NC12CC3CC(CC(C3)C1)C2)c1ccc2c(c1)OCCO2	0.7	x
47	CC1CCc2c(sc3ncnc(SCc4ccco4)c23)C1 (configuration not stated)	-0.3	x
48	Cc1ccc(S(=O)(=O)C2CS(=O)(=O)c3ccccc32)cc1 (configuration not stated)	2.0	x
49	O=C(O)c1cc(S(=O)(=O)N(Cc2ccco2)S(=O)(=O)c2ccc3c(c2)OCCO3)c(Cl)cc1Cl	1.6	x
50	CC1Cc2ccccc2N1C(=O)CN(Cc1ccco1)S(=O)(=O)/C=C/c1ccccc1 (configuration not stated)	2.4	x
51	COCCOC(=O)c1c(C)oc2cc(Br)c(OC(=O)c3ccc(OC)c(OC)c3)cc12	1.4	0.02
52	N#Cc1ccc(OCc2ccc(C(F)(F)F)cc2)c(Cl)c1	0.7	x
53	Cc1ccc(NCC(=O)N2CCN(c3ncccn3)CC2)cc1	1.7	x
54	Cc1cccc(C(N)CC(=O)O)c1 (configuration not stated)	x	-1.1
55	O=C(NCCCN1CCCC1=O)c1ccc2c(c1)NC(=O)c1ccccc1S2	-3.7	-0.026
56	Cc1cccc(NC(=O)C(F)(F)C(F)(F)C(F)(F)F)n1	-2.3	-0.014
57	COC(=O)c1cc(-c2ccccc2)n(C)c1C	-0.7	-0.51
58	Cc1ccc(/C=C2\C(=O)N(c3ccccc3)c3ccccc32)o1	-6.3	x
59	OC[C@@H](O)[C@@H](O)[C@H](O)[C@@H](O)CO	x	-0.33
60	CCCC1c2ccsc2CCN1C(=S)NC (configuration not stated)	-0.8	0.65
61	CCOC(=O)c1cc(C#N)c(N2CCNCC2)nc1C(F)(F)F	0.6	-0.74
62	Cc1ccc2c(CSc3nnc(C4CC4)n3N)cc(=O)oc2c1	-0.5	x
63	CCOC(=O)CN1C(=O)S/C(=C/c2cc(C)n(-c3cc(C)ccn3)c2C)C1=O	-3.6	x
64	C=CCSc1ncc(C(=O)OCC)c(N)n1	0.9	0.3
65	O=C(CSc1nnc(Cc2ccccc2)n1Cc1ccccc1)Nc1nccs1	-3.2	-0.85
66	CCOC(=O)N1CCN(C(=O)CN(c2ccc(Cl)c(C(F)(F)F)c2)S(C)(=O)=O)CC1	1.0	-0.63
67	O=C(CSC1=NC(c2ccco2)CC(C(F)(F)F)N1)NCc1ccc(F)cc1 (configuration not stated)	-0.1	-1.2
68	CCC(c1nnc(SCC(=O)N2CC(=O)Nc3ccccc32)o1)N(C)C (configuration not stated)	-1.1	x
69	Cc1ccc(N2C(=O)NC(=O)/C(=C\c3ccccc3)C2=O)cc1	0.5	x
70	Cc1ccc(OCC(=O)Nn2cnc3ccccc32)cc1	16	x
71	CCn1nnnc1SCC(=O)NC1CCCC1	6.1	0.023
72	O=C(CSc1ncnc2c1nnn2-c1ccc(F)cc1)NC1CCCCC1	0.3	0.74
73	Cc1ccc(/C=C2\SC(=S)N(NC(=O)c3ccccc3F)C2=O)o1	-4.0	x
74	COc1cc(C)c(S(=O)(=O)N2CCCC(C)C2)cc1C (configuration not stated)	-1.5	-0.27
75	COC(=O)c1ccc(CSc2nc(-c3ccccc3)cs2)o1	-1.4	x

Other entries
entry	SMILES	Ab BasE inh	KSHV LANA nucl
76	COc1ccc(OC)c(S(=O)(=O)N(C)CC(=O)N2CCN(c3ccc(F)cc3)CC2)c1	2.4	-0.5
77	CN1C(=O)C=CC1=O	-0.1	-0.89
78	NC(=O)N/N=C/c1ccc([N+](=O)[O-])o1	2.9&0.1	-0.11&-0.46&0.88
79	COc1ccccc1NC(=O)NN1CCCCC1	2.0	x
80	CCN(CC)c1ccc(-n2nc3cc(C)c(NC(C)=O)cc3n2)cc1	-2.5	2.5
81	CC[C@]1(O)C[C@H]2CN(CCc3c([nH]c4ccccc34)[C@@](C(=O)OC)(c3cc4c(cc3OC)N(C)[C@H]3[C@@](O)(C(N)=O)[C@H](O)[C@]5(CC)C=CCN6CC[C@]43[C@@H]65)C2)C1	x	0.32
82	OC1(C(F)(F)F)CC(c2ccc3c(c2)CCO3)=NN1 (configuration not stated)	-1.8	0.68
83	Cc1c(C(N)=O)sc2ncn(Cc3ccccc3)c(=O)c12	0.4	-0.38
84	c1ccc(-n2c(SCC3CCCO3)nnc2-c2cccs2)cc1 (configuration not stated)	0.4	x
85	CC(C)N(C(=O)CSc1nnc(Cc2cccc3ccccc23)n1N)C(C)C	0.8	x
86	O=S(=O)(Cc1ccccc1)NCc1ccccn1	8.1	-0.42
87	COc1cccc(NC(=O)c2cc(-c3cccc(OC)c3)n[nH]2)c1	-0.5	-1.4
88	O=C(CNCCc1ccc(Cl)cc1Cl)NCc1ccco1	1.4	x
89	Cn1c(CNC(=O)OC(C)(C)C)nnc1SCc1ccccc1	1.7	-0.26
90	Cc1cc(C)n2nc(C(=O)OCC(=O)c3ccccc3)nc2n1	0.5	x
91	CCOC(=O)COc1ccc(=O)n(-c2ccccc2)n1	-3.5	x
92	O=C(c1ccc(Cl)cc1)N1CCCCC(Sc2nnnn2Cc2cccs2)C1=O (configuration not stated)	-1.7	x
93	CC(C)(C)OC(=O)N1CCC(c2nc(-c3ccc(Cl)s3)cs2)CC1	1.2	x
94	O=C(COc1ncnc2sccc12)NCC1CCCO1 (configuration not stated)	4.2	x
95	CCc1cc2c(=O)c(-c3nncn3-c3ccccc3)coc2cc1OCC(=O)O	-0.2	x
96	CNc1oc(-c2ccc(OC)cc2)nc1C#N	-2.9	-0.71
97	N#Cc1nc(Cc2ccccc2)oc1NCCc1ccccc1	2.2	-0.32
98	COCCNC(=S)N1CCC(NC(=O)NC23CC4CC(CC(C4)C2)C3)CC1	0.3	-0.14
99	CC(=O)Nc1ccc(S(=O)(=O)Nc2ccc([N+](=O)[O-])cc2)cc1	-4.2	0.29&0.4
100	CCCCCCc1nnc(NC(=O)CC)s1	-1.9	-1.2
101	C/C(=C/c1ccccc1)C(=O)N1CC(C)OC(C)C1 (configuration not stated)	-1.6	2.3
102	O=C(c1ccco1)N1CCN(C2(c3ccccc3)C(=O)c3ccccc3C2=O)CC1	1.6	x
103	CC1(C)OC(=O)C(C2C3CC4CC(C3)CC2C4)C(=O)O1 (configuration not stated)	-0.6	x
104	Cc1nn(-c2ccccc2)c2sc(C(=O)OCC(=O)NC3CCCCCC3)cc12	1.0	x
105	O=C(NCc1ccco1)c1ccc2c(c1)N(Cc1ccccc1)C(=O)c1ccccc1S2=O (configuration not stated)	-1.1	0.059
106	N#Cc1ccc(NC(=O)CNCCN2CCOCC2)cc1	-1.7	0.37
107	O=C(O)CCC(=O)N1CCCCC1	4.2	4.2
108	CCc1nnc(NC(=O)c2sc(-c3cccc(Cl)c3)nc2C)s1	2.3	x
109	CSc1nnc(-c2ccccc2)n1/N=C/c1cn[nH]c1-c1ccccc1	-1.3	-0.87
110	CC(O)CN=Cc1cc2ccccc2nc1Cl (configuration not stated)	1.4	x
111	O=C(O)Cc1ccc2c(c1)OCCCO2	1.8	-0.99
112	O=C1NC(=NC2CCCC2)S/C1=C\c1ccc(Cl)cc1	1.7	x
113	CC1(C)Cc2ccccc2-c2nnc(-c3ccccc3)n21	-0.9	0.54
114	Oc1ccc2ccccc2c1C=NCc1cccnc1	-1.1	x
115	CCC(=O)N(C)c1nnc(-c2cccc(C)c2)s1	-3.1	0.34
116	C=COCCn1c(-c2nonc2N)nc2ccccc21	-2.5	0.14
117	CCC(=O)N1CCc2cc(Br)cc(S(=O)(=O)NCCN3CCN(c4ccccc4F)CC3)c21	-1.0	-0.54
118	OCc1nc2ccccc2n1CCOc1cccc(Cl)c1	1.4	-1
119	Cc1cc(C(=O)CSc2nc3ccccc3n2-c2ccccc2)c(C)n1-c1nccs1	-6.2	x
120	CCN1/C(=C2\C(=O)N(C)C(=S)N2c2ccccc2)C=Cc2ccccc21	4.3	x
121	CS(=O)(=O)N1CCCc2cc(C(=O)N3CCOCC3)ccc21	-2.3	0.21
122	c1ccc2[nH]c(NC3=NCCC3)nc2c1	2.9	x
123	O=S1(=O)N=C(N/N=C/c2ccccc2F)c2ccccc21	2.1	0.22
124	COC(=O)c1ccc(N(Cc2ccccc2)S(=O)(=O)c2ccccc2)cc1	3.1	x
125	COc1ccc(C(=O)N2CCC2)cc1S(=O)(=O)NCc1ccc(Cl)cc1	0.3	x
126	Cc1ccc(-c2ccc(OC(F)F)cc2)cc1	0.7	x
127	CCOC(=O)c1oc2ccccc2c1COC(=O)c1ccc(OCC)c(OC)c1	0.3	x
128	CCN1CCN(CCC(=O)Nc2ccc(OC)cc2)CC1	2.6	-0.69
129	CCOC(=O)N1CCN(C(=O)CSC2=C(C#N)C(C)(C)C(C#N)C(=O)N2)CC1 (configuration not stated)	-0.4	x
